VACV mCherry inh – vaccinia inhibition (mCherry reporter); Vaccinia virus mCherry reporter infection, fluorescence; about a quarter of the inactives have no number; Potency, µM (doses to about 36.5 µM), without a hit: at the top dose activity change, negative = inhibition, hits mostly inhibitors; 310,000 compounds, 0.63% hits; active = well fitted inhibition curve with a large enough effect; inconclusive = small, poorly fitted or top-dose-only effect; inactive = no such curve, though single readings can be large or run the other way; tested in A549 cells; also: nearly all actives have a fitted effect of over 35% in size; inactives centre near -10
VACV Venus inh – inhibitors of vaccinia virus (Venus reporter). Vaccinia virus Venus reporter expression, fluorescence. Potency, µM (doses to about 36.5 µM), for inactives: top-dose activity change, negative = inhibition, hits mostly inhibitors. 330,000 compounds, 0.46% hits. AID 720580; active means well fitted inhibition curve with a large enough effect; inconclusive means small, poorly fitted or top-dose-only effect; inactive means no such curve, though single readings can be large or run the other way; tested in A549 cells; also: nearly all actives have a fitted effect of over 30% in size; inactives centre near -10
* marks the source's active call; other numbers are inactive results; i = inactive; ? = inconclusive; . = no result given; [ ] = dose if it differs, or a comment. % is scaled to controls: 0 for no effect and ±100 for the full control effect; potency is read from the fitted curve at half-maximal effect. Outcome played no part in choosing rows; 0.87% or so of the library scored in one or more.

SMILES	VACV mCherry inh	VACV Venus inh
O=C(NC1CC(=O)N(c2ccc(Cl)cc2)C1)c1cc2ccccc2o1 (configuration not stated)	-4%	-8%
CCOc1cc2c3c(c1)C(C)CC(C)(C)N3C(=O)C2=O (configuration not stated)	i	-2%
O=C(NCc1cccc(Cl)c1)C1CCN(c2nn3cc(-c4ccc(F)cc4)nc3s2)CC1	-26%	?
COc1ccc(CCNC(=O)c2cc(=O)[nH]c3ccc(S(=O)(=O)N4CCCCC4)cc23)cc1OC	-5%	-3%
CC(Sc1ncccn1)C(=O)Nc1ccc2c(c1)OCCO2 (configuration not stated)	i	-11%
COc1cc(/C=N/n2c(-c3ccccc3)n[nH]c2=S)cc(OC)c1O	?	-17%
OCC1(Cc2ccccc2)CCN(Cc2cnn(-c3ccccc3F)c2)CC1	-12%	-5%
CCOC(=O)c1c(NC(=O)CCl)sc(CN(C)C)c1-c1ccccc1	-13%	-9%
COc1ccc(C2=NN(C(=O)c3ccccc3)C(c3ccc(OC)c(OC)c3)C2)c(O)c1 (configuration not stated)	-1%	-13%
CCOc1ccc(N(C)S(=O)(=O)c2ccc(C)c(C(=O)OCC(=O)c3c[nH]c4ccccc34)c2)cc1	i	-19%
O=C(Nc1nnc(C23CC4CC(CC(C4)C2)C3)s1)c1ccc(N2C(=O)CCC2=O)cc1	-15%	-12%
Cc1ccc(NC(=O)CN2C(=O)N/C(=C/c3cc(C)n(-c4ccc(C(=O)O)cc4)c3C)C2=O)cc1	3%	7%
O=C1/C(=C/c2ccc(F)c(F)c2)CSc2sccc21	.	-28%
CCN1CCN(C(=O)NC(c2ccc(C)c(F)c2)C(Cl)Cl)CC1 (configuration not stated)	-10%	5%
COC(=O)c1sccc1S(=O)(=O)N(CC(=O)NCc1ccc(F)cc1)c1ccc(Cl)cc1	-8%	-8%
COc1ccccc1N1CCN(S(=O)(=O)c2cc(-c3cc(C)no3)ccc2C)CC1	i	-9%
CC1N(C(=O)N(C)C)CCN1S(=O)(=O)c1ccccc1 (configuration not stated)	i	0%
[O-]/C(=C(\C(=S)Nc1ccccc1F)[n+]1ccccc1)c1ccc(-c2ccccc2)cc1	i	-14%
Cc1cc(C)cc(N=C(NO)c2cccc([N+](=O)[O-])c2)c1	.	?
NCC(=O)NNC(=O)OCC1c2ccccc2-c2ccccc21	-5%	-8%
CCOc1ccc(NC(=O)CN(C)C(=O)c2csc3c2CCCC3)cc1OCC	-12%	-11%
CCSc1nc2sc3c(c2c2[n+]1CC(CBr)O2)CCCC3 (configuration not stated)	-13%	-21%
CNc1cc(CSC)nc(SCc2ccc(Cl)cc2Cl)n1	-33%	-21%
CCN(CC)c1ccc(C(=O)OCC(=O)c2ccco2)cc1	-20%	-6%
COc1ccc(NC(=O)C2(C)CCN2Cc2ccccc2Cl)cc1OC (configuration not stated)	i	-17%
COc1ccc(N(C(=O)c2cnccn2)C(C(=O)NC2CCCCC2)c2cc(OC)c(OC)c(OC)c2)cc1 (configuration not stated)	i	0%
Cc1[nH]nc2c1C1(CCN(C(=O)OCc3ccccc3)CC1)C(C#N)=C(N)O2	i	-9%
Cc1ccc(OCC(=O)NC2CCCc3ccccc32)c(C)c1 (configuration not stated)	-21%	-6%
COc1cc2oc(=O)c(CC(=O)NCc3ccc(OC)c(OC)c3)c(C)c2cc1Cl	4%	2%
CC(=O)c1ccc(NC(=O)/C(=C\c2ccco2)NC(=O)c2ccco2)cc1	-17%	-5%
OCC1(Cc2cccc(F)c2)CCN(Cc2cccc3nccnc23)CC1	-19%	-8%
CCCCNC(=O)COC(=O)c1ccccc1F	-20%	-11%
CCCCCN(C(=O)CCC(=O)OC(C)C(=O)c1ccccc1)c1c(N)n(CCCC)c(=O)[nH]c1=O (configuration not stated)	-21%	-15%
Cn1nnnc1SCC(=O)Nc1ccc(S(=O)(=O)N2CCOCC2)cc1	-10%	-3%
CCn1c(C)nc2cc(C(=O)NNS(=O)(=O)c3ccccc3F)ccc21	.	-6%
COCCCNC(=O)CC1C[C@H](C(=O)N2CCCCC2)[C@@]2(C)c3[nH]c4ccccc4c3CCN2C1=O (some centres not stated)	i	-11%
COc1cc(-c2ccc3oc(-c4cccc(C)c4)c(C#CC4(O)CCCCC4)c3c2)cc(OC)c1OC	?	-26%
COC(=O)c1ccc(COC(=O)C(CCSC)NC(=O)COc2ccccc2)cc1 (configuration not stated)	-5%	-10%
COc1ccc2c(c1OC)C(=O)OC2Nc1nc(-c2cc3cc(Br)ccc3oc2=O)cs1 (configuration not stated)	?	?
COCCn1c(SCC(=O)Nc2ccc(OC)c(S(N)(=O)=O)c2)nc2ccccc2c1=O	-20%	-10%
CCCCN1Cc2ccccc2Oc2cc(Br)ccc2S1(=O)=O	i	-14%
CCN1C(=O)N[C@@H](c2ccccc2)[C@H](C(C)=O)[C@H]1C	i	-15%
C[C@]12C=CC(=O)C=C1CCC1C2CC[C@@]2(C)C1CCC21OCCO1 (some centres not stated)	i	-6%
NC(=O)COc1ccc(NC(=O)OCc2ccccc2)cc1	.	-15%
Cc1ccc(C)c(-n2c(SCC(=O)N3CCC(C(=O)O)CC3)nnc2-c2cccc(Cl)c2)c1	i	-3%
CCN(CC)CCCNc1nc2cc(OC)c(OC)cc2c2nc(-c3ccccc3)nn12	?	?
NS(=O)(=O)c1ccc(NC(=O)c2ccc(CSc3ccccc3)o2)cc1	i	-14%
CC1CN(C(C)C)C(=S)N(c2ccccc2)C1=O (configuration not stated)	-14%	1%
O=C(Nc1ccc2c(c1)OCCO2)C1c2ccccc2OCC(=O)N1CC(F)(F)F (configuration not stated)	i	4%
CCN(CC)C(=O)c1cccc(-c2csc(C(C)(O)c3ccccc3)n2)c1 (configuration not stated)	?	?
Cn1nnc2c(NCCc3ccccc3)ncnc21	-6%	5%
CC1(C)CC(=O)C(C=NCCN2CCN(C3CC(=O)N(c4ccc(Cl)c(Cl)c4)C3=O)CC2)=C(O)C1 (configuration not stated)	3%	-2%
Cc1cc(C(=O)O)ccc1N=Cc1c(O)ccc2ccccc12	i	-18%
COc1ccc(OC(F)(F)F)cc1CC1(C)C(=O)Nc2c(Cl)ccc(Cl)c21 (configuration not stated)	-4%	-3%
COc1cc2c(cc1OC)C(C)N(C(=O)c1cc3n(n1)C(C(F)(F)F)CC(c1ccco1)N3)CC2 (configuration not stated)	?	?
COc1ccccc1N(CC(=O)NCc1ccco1)S(C)(=O)=O	-1%	5%
Cc1cccc(C)c1NC(=O)CN1C(=O)C(C)Oc2ccccc21 (configuration not stated)	i	4%
Cc1ccccc1NC(=O)C1CCN(c2cc(-c3ccccc3)nc3ncnn23)CC1	.	?
CN(C)S(=O)(=O)c1cc(NC(=O)COC(=O)c2ccc3c(c2)OCO3)ccc1Cl	-10%	5%
Cc1nc2cc(-c3ccccc3)nn2c(C)c1CCC(=O)NC(C)c1ccc2c(c1)OCCO2 (configuration not stated)	i	?

Following part.
SMILES	VACV mCherry inh	VACV Venus inh
COc1ccc(Br)cc1/C=N/NC(=O)c1cc(OC)c(OC)c(OC)c1	?	-19%
O=C(NCc1ccco1)c1cccc(S(=O)(=O)N2CCc3ccccc32)c1	-3%	-24%
CC(=O)/C(=N/Nc1ccccc1)Sc1nnc(CCc2ccccc2)n1-c1ccccc1	-21%	-19%
O=C(NCc1ccccn1)C(=O)NCC(c1ccco1)N1CCOCC1 (configuration not stated)	-16%	-7%
COc1ccccc1C(=O)Nc1c(C(=O)N2CCN(c3ccccc3F)CC2)oc2ccccc12	-16%	-15%
C=CCOC(=O)C(C#N)c1nc2ccccc2nc1N1CCN(Cc2ccccc2)CC1 (configuration not stated)	.	-10%
COC(=O)C1=C(C(=O)OC)[C@@H]2Nc3ccccc3[C@@]23C[C@@H](C(=O)OC)N(C(=O)c2cccs2)C3=N1	?	?
Cc1ccc2ncnc(Nc3ccc(C)c(C)c3)c2c1	-22%	-19%
CC(C)(C)C(=O)COC(=O)c1c2c(nc3ccccc13)CCC2	-10%	-8%
O=C(CCc1nc(-c2ccc(Cl)cc2)no1)NCC1CCCO1 (configuration not stated)	-8%	-26%
Cc1ccc(-c2nnc(N3CCOCC3)c3ccccc23)cc1S(=O)(=O)NCc1cccnc1	-3%	-13%
COC(=O)c1ccc2c(c1)C(=O)/C(=C/c1ccc(O)cc1)O2	i	20%
O=C(CSc1nnc(-c2cccc(F)c2)c(-c2cccc(F)c2)n1)NC1CCCCC1	-14%	-13%
C[C@@]12C(=O)Nc3ccc(F)cc3C(=O)N1[C@H]1c3cc(Br)ccc3OC[C@@H]1[C@@H]2c1ccccc1	-22%	?
Cc1cc(SCC(=O)Nc2cccc(S(=O)(=O)NC3=NCCCCC3)c2)c(C)cc1Br	?	?
CCN(CC)S(=O)(=O)c1ccc2[nH]cc(C(=O)NCCCN3CCCCC3)c(=O)c2c1	-9%	-4%
CCC(C)(C)NC(=O)C1CCC(CNS(=O)(=O)c2ccc3c(c2)CC(C)N3C(C)=O)CC1 (configuration not stated)	-11%	-17%
CCC(C)(C)NC(=O)CCn1c(-c2ccccc2)cc(C(C)=O)c1C	-5%	-6%
CCOC(=O)N(C)c1c(CC)nc2c(OCc3ccccc3C)cccn12	i	-7%
Cc1c(CCO)c(=O)[nH]n1S(=O)(=O)c1cccc(C(F)(F)F)c1	-14%	-8%
CCOc1ccc2nc(NCCNC(=O)Nc3cccc(C)c3)c(C#N)cc2c1	-20%	-18%
O=C1O/C(=C/c2ccccc2)c2ccccc21	-13%	-20%
CC1(C)CC(NC(=O)CCC2CCCC2)CC(C)(C)N1	i	-9%
Nc1nnc(CCS(=O)(=O)c2cc(Cl)ccc2Cl)s1	-1%[1.46 µM]	-6%

Entries listed so far that have a Cl atom (14):
SMILES	VACV mCherry inh	VACV Venus inh
O=C(NC1CC(=O)N(c2ccc(Cl)cc2)C1)c1cc2ccccc2o1 (configuration not stated)	-4%	-8%
O=C(NCc1cccc(Cl)c1)C1CCN(c2nn3cc(-c4ccc(F)cc4)nc3s2)CC1	-26%	?
CCOC(=O)c1c(NC(=O)CCl)sc(CN(C)C)c1-c1ccccc1	-13%	-9%
CCN1CCN(C(=O)NC(c2ccc(C)c(F)c2)C(Cl)Cl)CC1 (configuration not stated)	-10%	5%
COC(=O)c1sccc1S(=O)(=O)N(CC(=O)NCc1ccc(F)cc1)c1ccc(Cl)cc1	-8%	-8%
CNc1cc(CSC)nc(SCc2ccc(Cl)cc2Cl)n1	-33%	-21%
COc1ccc(NC(=O)C2(C)CCN2Cc2ccccc2Cl)cc1OC (configuration not stated)	i	-17%
COc1cc2oc(=O)c(CC(=O)NCc3ccc(OC)c(OC)c3)c(C)c2cc1Cl	4%	2%
Cc1ccc(C)c(-n2c(SCC(=O)N3CCC(C(=O)O)CC3)nnc2-c2cccc(Cl)c2)c1	i	-3%
CC1(C)CC(=O)C(C=NCCN2CCN(C3CC(=O)N(c4ccc(Cl)c(Cl)c4)C3=O)CC2)=C(O)C1 (configuration not stated)	3%	-2%
COc1ccc(OC(F)(F)F)cc1CC1(C)C(=O)Nc2c(Cl)ccc(Cl)c21 (configuration not stated)	-4%	-3%
CN(C)S(=O)(=O)c1cc(NC(=O)COC(=O)c2ccc3c(c2)OCO3)ccc1Cl	-10%	5%
O=C(CCc1nc(-c2ccc(Cl)cc2)no1)NCC1CCCO1 (configuration not stated)	-8%	-26%
Nc1nnc(CCS(=O)(=O)c2cc(Cl)ccc2Cl)s1	-1%[1.46 µM]	-6%

Following part
SMILES	VACV mCherry inh	VACV Venus inh
COC(=O)C(C)NC(=O)N1CCN(c2nnc(C)c3c(C)n(-c4ccc(Cl)cc4)nc23)CC1 (configuration not stated)	?	-25%
COc1ccc(NC(=O)CS(=O)c2cccc(C(F)(F)F)c2)cc1 (configuration not stated)	i	-19%
COCCn1c(SCC(=O)Nc2ccc3c(c2)CCC3)nc2ccccc2c1=O	-8%	-29%
COc1cc(C2(O)CCCCC2C)cc(OC)c1OC (configuration not stated)	-15%	-1%
O=C(COC(=O)c1cc(Cl)ccc1Cl)Nc1ccc2[nH]c(=O)[nH]c2c1	-7%	-16%
Cc1cccc(C(=O)OCC(=O)NC(C)CCc2ccccc2)c1 (configuration not stated)	i	3%
COc1ccccc1C1=NOC(Cn2c(NCC3CCCO3)nc3c2c(=O)n(C)c(=O)n3C)C1 (configuration not stated)	-6%	-12%
Cc1cc(NC(=O)CCC(=O)N(C2CC2)C(C(=O)NC(C)(C)C)c2ccccc2Cl)no1 (configuration not stated)	-11%	4%
COC(=O)CSc1cc([N+](=O)[O-])ccc1NC(=O)OC	-12%	-3%
CN(C)c1nc(-c2ccccn2)nnc1-c1ccccc1	8.9µM*	?
CCOC(=O)c1c(NC(C)=O)c2c3c(sc2n1Cc1nc(-c2ccccc2C)oc1C)CCCC3	-15%	2%
CC(C)(C)c1cc(C(=O)NNC(=O)Nc2cccc(Cl)c2)n(Cc2ccccc2)n1	-9%	-7%
O=c1c2ccc([N+](=O)[O-])cc2ncn1CCOc1cccc(Br)c1	?	-16%
CCNC(=O)CC1C(=O)N(c2ccc(C)cc2)C(=O)N1Cc1ccc(C)cc1 (configuration not stated)	-2%	13%
CCOc1ccc2nc(NC(=O)c3cccn(Cc4ccccc4C)c3=O)sc2c1	-6%	-1%
CSc1ccccc1OC1CCN(Cc2ccccc2)CC1	-20%	-10%
